Compound activity as filed in PubChem.
VACV mCherry inh – inhibitors of vaccinia virus infection (mCherry reporter signal). AID 720579. Vaccinia virus mCherry reporter infection, fluorescence; about a quarter of the inactives have no number. 0.63% of 310,000 active. Potency, µM (highest dose often 36.5 µM), inactives show at the top dose activity change, negative = inhibition, usual class: inhibitors; active = well fitted inhibition curve with a large enough effect; inconclusive = small, poorly fitted or top-dose-only effect; inactive = no such curve, though single readings can be large or run the other way; tested in A549 cells; further: nearly all actives have a fitted effect of over 35% in size; inactives centre near -10
Vaccinia Venus – inhibitors of vaccinia virus (Venus reporter) | Vaccinia virus Venus reporter expression, fluorescence | Potency, µM (top dose mostly 36.5 µM), inactives show at the top dose activity change, negative = inhibition, most hits filed as inhibitors | 0.46% of 330,000 active; active means well fitted inhibition curve with a large enough effect; inconclusive means small, poorly fitted or top-dose-only effect; inactive means no such curve, though single readings can be large or run the other way; tested in A549 cells; further: nearly all actives have a fitted effect of over 30% in size; inactives centre near -10
Starred values were filed as active, the others as inactive; i = inactive; ? = inconclusive; / = not tested or not shown; [ ] = another dose, or the depositor's remark. On the % scale 0 is the no-effect control and ±100 the full control effect; potency means the concentration at half of the fitted maximal effect.

Preview:
Results follow in this order: VACV mCherry inh	Vaccinia Venus
> CC(C)C(NC(=O)c1ccccc1F)C(=O)NCc1ccc(S(=O)(=O)N2CCOCC2)cc1 (stereo not given)
  -17%	-1%
> CCn1c(CCc2ccccc2)nnc1SCC(N)=O
  -14%	-9%
> COc1ccc(CCC(=O)Nc2nc3ccccc3[nH]2)cc1OC
  /	3%

The listing, from the first entry:
Results follow in this order: VACV mCherry inh	Vaccinia Venus
> CC(C)C(NC(=O)c1ccccc1F)C(=O)NCc1ccc(S(=O)(=O)N2CCOCC2)cc1 (stereo not given)
  -17%	-1%
> CCn1c(CCc2ccccc2)nnc1SCC(N)=O
  -14%	-9%
> COc1ccc(CCC(=O)Nc2nc3ccccc3[nH]2)cc1OC
  /	3%
> CCOc1ccc(-c2cc(NC(=O)Nc3ccccc3Cl)c(C(=O)OC)s2)cc1
  -11%	-15%
> CCCn1c(=O)[nH]c(=O)c2c1nc(-c1ccc(OC(F)(F)C(F)C(F)(F)F)cc1)n2CCOC (stereo not given)
  /	-16%
> COc1ccc(/C=C/c2nc3cc(-c4ccccc4)ccc3o2)cc1O
  ?	-29%
> O=C(NCc1cccnc1)C1CCC(CNS(=O)(=O)c2ccc(Cl)cc2)CC1 (stereo not given)
  -20%	13%
> Cc1csc(NC(=O)c2cc(-c3ccncc3)nc3ccccc23)n1
  8%	4%
> O=C(NCCOc1ccccc1Cl)c1cc(F)c(F)cc1Cl
  -13%	-5%
> Cc1ccc2nc(-c3ccc(NC(=O)CCN4C(=O)c5ccccc5C4=O)cc3)sc2c1
  -21%	-19%
> CCCS(=O)(=O)NC(=O)C1(C)CCCN(C(=O)c2cc(OC)c(OC)c(OC)c2)C1 (stereo not given)
  1%	11%
> O=C(CNC(=O)c1ccc(Br)o1)NCc1ccc2c(c1)OCO2
  /	?
> COc1ccccc1NC(=O)Nc1ccnn1C1CCCCC1
  -10%	-8%
> Cc1nc2ccc(Cl)cc2c(=O)n1-c1ccc([N+](=O)[O-])cc1
  i	-5%
> CCOC(=O)C1C(=O)C=C(c2ccc(C)cc2)CC1c1cccc([N+](=O)[O-])c1 (stereo not given)
  -27%	-21%
> NS(=O)(=O)c1ccc(-c2ccc(C=C3C(=O)NC(=O)NC3=O)o2)cc1
  i	-25%
> COc1ccc(C2=NS(=O)(=O)N(C)C(C(=O)Nc3ccc(F)cc3F)=C2)cc1
  i	-18%
> COc1ccc(OC)c(C(=O)c2coc3cc(Br)c(O)c(Br)c23)c1
  ?	-29%
> CCCCOc1ccc(C(=O)Nc2ccc(-c3nc4ccccc4s3)cc2C)cc1
  -10%	-8%
> Cc1cccn2c(N)c(-c3ccccc3)nc12
  -8%	4%
> CN(c1ccccc1)S(=O)(=O)c1cccc(C(=O)Nc2nn[nH]n2)c1
  i	-8%
> O=C(COc1cc(Cl)c(Cl)cc1Cl)NC(=O)Nc1ccc2c(c1)OCCO2
  i	-4%
> Cc1ccc(NC(=O)C2CCN(S(=O)(=O)c3ccc4[nH]c(=O)ccc4c3)CC2)cc1C
  -8%	-5%
> O=c1c2ccccc2nc(-c2ccc(F)cc2)n1NCc1ccccc1O
  -15%	-1%
> CC1CCCCC1NC(=O)COC(=O)c1ccc2ccccc2n1 (stereo not given)
  -1%	-11%
> CC1(C(=O)Nc2ccc(Cl)c(Cl)c2)CCN1C(=O)Cc1cccc2ccccc12 (stereo not given)
  -20%	-14%
> CCOC(=O)c1c(C)[nH]c(C)c1S(=O)(=O)NCC(=O)NCc1cccc(C)c1
  ?	-19%
> CCCCNc1cc(=O)n(C)c(=O)[nH]1
  7%	2%
> Cc1cccc(NC(=O)CC2C(=O)OCCN2Cc2ccccc2)c1 (stereo not given)
  -11%	-12%
> O=C(CCSc1ccc(Br)cc1)c1ccc(O)cc1
  -22%	?
> CCN1CCN(c2nc(Nc3ccc(OC)cc3)nc(N)c2[N+](=O)[O-])CC1
  i	-16%
> CCOC(=O)C(NC(=O)c1ccc(OC)cc1)(Nc1cc(C)on1)C(F)(F)F (stereo not given)
  i	-6%
> COc1ccccc1CN(C)C(=O)c1cc(C)nc2ccccc12
  -11%	-6%
> CC(=O)C1=CCC(c2ccc(Cl)cc2)N(S(=O)(=O)c2ccccc2C)C1 (stereo not given)
  i	5%
> CCCCSc1nnc(NC(=O)CCc2ccccc2)s1
  -2%	-14%
> CCC(=O)NNc1cccc(Cl)n1
  -7%	-9%
> O=S(=O)(Nc1ccc(-c2nc3cccnc3s2)cc1)c1cccs1
  -10%	-1%
> CCCc1nc2ccccc2c(=O)n1-c1ccc(C(=O)OCC)cc1
  i	3%
> COc1cccc(Nc2nnc(SCN3C(=O)c4ccccc4C3=O)s2)c1
  -12%	-2%
> CCCCCn1c(=O)c(C(=O)NCCc2ccccc2)c(O)c2ccccc21
  -19%	-14%

Looked up above:
`Cc1cccc(NC(=O)CC2C(=O)OCCN2Cc2ccccc2)c1` (stereo not given) | VACV mCherry inh = -11%
`CCN1CCN(c2nc(Nc3ccc(OC)cc3)nc(N)c2[N+](=O)[O-])CC1` | Vaccinia Venus = -16%
`O=C(COc1cc(Cl)c(Cl)cc1Cl)NC(=O)Nc1ccc2c(c1)OCCO2` | Vaccinia Venus = -4%
`CC1(C(=O)Nc2ccc(Cl)c(Cl)c2)CCN1C(=O)Cc1cccc2ccccc12` (stereo not given) | VACV mCherry inh = -20%
`Cc1ccc(NC(=O)C2CCN(S(=O)(=O)c3ccc4[nH]c(=O)ccc4c3)CC2)cc1C` | VACV mCherry inh = -8%
`CN(c1ccccc1)S(=O)(=O)c1cccc(C(=O)Nc2nn[nH]n2)c1` | Vaccinia Venus = -8%
`CCCCSc1nnc(NC(=O)CCc2ccccc2)s1` | VACV mCherry inh = -2%

Complete entries as entered above. Order of screens: VACV mCherry inh	Vaccinia Venus
Entry for CCCc1nc2ccccc2c(=O)n1-c1ccc(C(=O)OCC)cc1 → i	3%
Entry for Cc1ccc(NC(=O)C2CCN(S(=O)(=O)c3ccc4[nH]c(=O)ccc4c3)CC2)cc1C → -8%	-5%
Entry for CN(c1ccccc1)S(=O)(=O)c1cccc(C(=O)Nc2nn[nH]n2)c1 → i	-8%

New compounds follow.
Results follow in this order: VACV mCherry inh	Vaccinia Venus
> C=CCn1c(SCC(=O)c2ccc(O)c(O)c2)nnc1-c1cccc(C)c1
  -17%	-8%
> COc1ccc(NS(=O)(=O)c2cccc(C(=O)NN=Cc3cc(Br)c(O)c(Br)c3)c2)cc1
  -13%	-12%
> Clc1cccc(-c2nnc(CN3CCN(c4ccccn4)CC3)o2)c1
  -7%	-3%
> O=C(O)[C@@H]1CCCN1C(=O)c1ccco1
  i	-5%
> CC(=O)OC1CCC2(C)C(CCC3C2CC(=O)C2(C)C3CC(C(C(C)=O)C(C)=O)C2C(C)=O)C1 (stereo not given)
  -6%	7%
> COc1ccc(N(CC(=O)Nc2cccc([N+](=O)[O-])c2C)S(C)(=O)=O)cc1OC
  -7%	-3%
> CCOC(=O)c1c(NC(=O)/C=C\C(=O)O)sc(C)c1-c1ccccc1
  -4%	-10%
> CCOC(=O)/C=C/c1ccc2c(c1)S(=O)(=O)N(C1CCCC1)[C@H]2CC(=O)OCC
  -6%	-25%
> Cc1cc(S(=O)(=O)Nc2c(C)nc3nc[nH]n3c2=O)ccc1F
  6%	7%
> Cc1cccc(CCNC(=O)c2c[nH]c3ccc(S(=O)(=O)Nc4ccccc4F)cc3c2=O)c1
  -6%	-4%
> CC1=C([N+](=O)[O-])C(c2ccccc2)NC(=O)N1 (stereo not given)
  -6%	1%
> CCCC(C)C(=O)Nc1ccc(S(N)(=O)=O)cc1 (stereo not given)
  i	-13%
> COc1ccc(CCC2=NCCN2C(CC(C)C)c2nc3ccccc3[nH]2)cc1 (stereo not given)
  i	-14%
> CCCC/C(=N\O)c1c[nH]c2ccccc12
  -3%	-18%
> O=C(NC1CCCC1)C(c1ccncc1)N(C(=O)c1csnn1)c1cccc(Cl)c1 (stereo not given)
  -18%	0%
> Fc1ccc(-c2nc3c(Cl)cc(C(F)(F)F)cn3c2Cc2cccc(Cl)c2)cc1
  19%	8%
> CC1=[N+]([O-])C(C)(C)C(c2ccc(Br)cc2)=[N+]1[O-]
  i	-15%
> NC1=NC(=O)/C(=C/c2cn(CCC(=O)O)nc2-c2ccc(F)cc2)S1
  -10%	2%
> CC(=O)Nc1cccc(-c2csc(Nc3ccc(C)cn3)n2)c1
  ?	?
> CCS(=O)(=O)N1Cc2ccccc2CC1C(=O)Nc1nc2ccc(F)cc2s1 (stereo not given)
  i	-12%
> Cc1cccc(C2=NCC(=O)N(CC(=O)NCc3ccco3)c3sc4c(c32)CCCC4)c1
  ?	-28%
> CCCCc1nc(N)c(C#N)c(-c2ccco2)c1CCC
  -5%	-7%
> O=C(Nc1ccc2c(c1)OCCO2)C(=O)c1c[nH]c2ccccc12
  ?	-27%
> CC(C)Cc1csc(NC(=O)c2ccccc2Cl)c1C(=O)O
  -11%	-4%
> CC(=O)NC(c1cccc(F)c1)c1nc(-c2ccccc2)cs1 (stereo not given)
  0%	-6%
> COc1ccc(S(=O)(=O)N2CCCCC2)cc1NC(=O)CN(C)C1CCCCC1
  -1%	-26%
> Cc1cc(C(=O)CSc2ncccn2)c(C)n1-c1cccc(F)c1
  -8%	-2%
> CCC(=O)NC(=S)Nc1ccc(S(=O)(=O)NC2CCCCC2)cc1
  -19%	-9%
> Cn1c(=O)n(C)c2cc(N3CCOCC3)c(NS(=O)(=O)c3cccc(C#N)c3)cc21
  -8%	-9%
> Cc1ccc(-c2nnn(CC(=O)NCCc3ccc4c(c3)OCO4)n2)o1
  -13%	-1%
> O=C(COc1ccc(S(=O)(=O)N2CCCCC2)cc1)N1CCCCCC1
  /	-10%
> COc1ccc(S(=O)(=O)c2cn(C)c3cc(N4CCOCC4)c(F)cc3c2=O)cc1
  -8%	-13%
> CCS(=O)(=O)Nc1cc(OC)c(OC)cc1Cc1nccc2cc(OC)c(OC)cc12
  11%	-10%
> COC(=O)C1SCC2C(=O)N(Cc3ccc(Cl)cc3)CC(=O)N21 (stereo not given)
  -12%	-6%
> CCc1c(C)nc2ncnn2c1Nc1ccccc1C
  -18%	-17%
> CC1(C)CCC/C(=C\c2ccccc2)C1=O
  -2%	-14%
> CC(C)NC(=S)Nc1ccc2nc3n(c(=O)c2c1)CCCCC3
  36%[activator]	-12%
> Cc1ccc(NC(=O)C2CC(=O)n3c(nc4ccccc43)N2)cc1 (stereo not given)
  i	-7%
> CC(C)CCNC(=O)CSc1nc2ccccc2s1
  ?	4%
> CCOc1ccccc1NS(=O)(=O)c1cccs1
  -19%	-8%
> Cc1ccc(/C=N/NC(=O)c2n[nH]c3c2CCCC3)cc1
  -20%	?
> Cc1ccc(-c2noc(COc3ccccc3C)n2)cc1
  -20%	-20%
> COc1cc(C(=O)NCC(=O)N/N=C/c2ccccn2)cc(OC)c1OC
  i	-9%
> Cc1c(/C=N/n2cnnc2)c2ccccc2n1CCOc1ccccc1
  -19%	-23%
> COc1ccc(-c2ccc(=O)n(Cc3cc(=O)n4ccccc4n3)n2)cc1
  /	-11%
> O=C(c1cc2c(s1)CCCC2)N1CCC2(CC1)OCCO2
  -2%	-17%
> COc1ccc(C(=O)NC(=S)NNC(=O)c2cnccn2)cc1OC
  i	-19%
> O=C(O)Cc1csc2ccccc12
  -6%[1.46 µM]	-5%
> FC(F)(F)c1ccc(-c2cccc3c2C2CC3CCN2)cc1 (stereo not given)
  ?	?
> Cc1cc(/C=C2/NC(=O)N(c3ccccc3)C2=O)c(C)n1-c1cccnc1
  -18%	-9%
> CCOC(=O)c1cc(-c2ccc(F)cc2)n(CCC(=O)Nc2nc3cc(C)c(C)cc3s2)c1C
  -17%	-20%
> Cc1ccc(S(=O)(=O)N(C)C)cc1NC(=O)COC(=O)C1(c2ccccc2)CC1
  -2%	-11%
> CC(C)(C)SCCNC(=O)CN(c1ccccc1)S(=O)(=O)c1ccccc1
  -24%	0%
> Cc1cc(C(=O)Nc2cccc3ccccc23)c(C)o1
  ?	8%
> Cc1ccc2cc3c(nc2c1)N(c1ccccc1)CC3
  -1%	-1%
> Cc1cccc(-n2cc(CN3CCN(C(=O)c4ncn[nH]4)CC3)c(-c3cccc(F)c3)n2)c1
  i	-4%
> Cc1ccc(S(=O)(=O)N2CCCCC2)cc1NS(=O)(=O)c1ccc(Cl)c(C(=O)O)c1
  -15%	-12%
> O=C(COc1ccc(Br)cc1)Nc1ccc(S(=O)(=O)Nc2ccccn2)cc1
  ?	-25%
> COc1ccccc1C(=O)NNC(=O)c1cccc(C)c1
  -17%	3%
> COc1ccc(NS(=O)(=O)c2ccc(NC(=S)NC(=O)c3ccc(F)cc3)cc2)nn1
  -10%	-9%

Later entries:
Results follow in this order: VACV mCherry inh	Vaccinia Venus
> Cc1ccc(S(=O)(=O)N2CCCCC2)cc1NC(=O)Cn1ccsc1=N
  -10%	-19%
> CC1(C)CC(=O)c2ccc(O)cc2O1
  -2%	1%
> Cc1ccc2nc(SCC(=O)NCc3ccccc3)nc(=O)n2c1
  -13%	-7%
> CC(C)OC(=O)/C(=C\c1cccc2ccccc12)NC(=O)c1ccccc1
  -1%	0%
> CSc1cccc(Nc2cc(C(=O)NCCCN(C)c3ccccc3)c3ccccc3n2)c1
  -20%	-16%
> Cc1ccccc1NS(=O)(=O)CCCCC(Cl)(Cl)Cl
  -24%	-11%
> O=C(CCNS(=O)(=O)c1ccccc1C(F)(F)F)NNC(=O)C1COc2ccccc2O1 (stereo not given)
  0%	-8%
> Cc1ccc2ncc(C(=O)c3ccc(C)c(C)c3)c(S(=O)(=O)c3ccccc3)c2c1
  -19%	-6%
> CCCCN(Cc1cccs1)S(=O)(=O)c1ccc(-c2ccc(=O)[nH]n2)s1
  -14%	-23%
